Source: PubChem
RGS16-Gao – RGS16-Galphao interaction regulator (human) | O15492+P09471 | bead-based flow cytometry RGS16-Galphao binding, fluorescence; actives lie on both sides | binding response (% of control), % at 10 µM | 0.38% of 220,000 active | AID 1441;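 active = below 25% or above 175%, edge rows of some plates excepted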;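 note: Galphao activated by GDP with aluminum fluoride before binding; 100% = wells without compound and 0% = beads without RGS; some results beyond the cut were filed as inactive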
Target sequence (O15492 whole entry, looked up): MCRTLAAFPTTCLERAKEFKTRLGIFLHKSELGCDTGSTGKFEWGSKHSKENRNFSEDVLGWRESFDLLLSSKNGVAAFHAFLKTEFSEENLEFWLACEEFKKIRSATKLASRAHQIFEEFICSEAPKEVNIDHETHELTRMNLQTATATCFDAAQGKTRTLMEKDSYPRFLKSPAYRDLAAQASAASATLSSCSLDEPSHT
Target sequence (P09471 whole entry, looked up): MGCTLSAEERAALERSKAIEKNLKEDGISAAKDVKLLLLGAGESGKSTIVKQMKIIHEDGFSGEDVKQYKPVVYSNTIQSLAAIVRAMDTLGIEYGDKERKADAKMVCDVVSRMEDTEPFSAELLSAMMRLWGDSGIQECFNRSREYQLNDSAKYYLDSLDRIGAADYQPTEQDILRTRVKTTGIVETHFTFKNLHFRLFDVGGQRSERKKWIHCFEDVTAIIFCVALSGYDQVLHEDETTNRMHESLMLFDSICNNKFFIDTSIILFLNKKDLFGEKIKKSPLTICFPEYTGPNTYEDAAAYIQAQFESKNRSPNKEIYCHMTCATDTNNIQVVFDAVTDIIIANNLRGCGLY
INS promoter inh – TRM-6 insulin promoter activity inhibition; inhibition, % at 2 µM; TRM-6 cells (human fetal islet line), insulin promoter-eGFP reporter, imaging; reporter expression induced with tamoxifen; 0.9% of 130,000 active;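 active = inhibition above the mean plus 3 SD, with well images judged a real hit on visual review, cut at about 60% in these data, passing the limit was not always enough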
HSV augment – increases HSV replication in cells; HSV replication augmentation in cells, fold increase; maximum fold increase; 0.005% of 220,000 active; AID 1956;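 active = peak rise of 1.5-fold or more in the series; tested in PC3 cells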;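 note: first round at 10 µM; read as green reporter fluorescence; hits show the peak of a series up to 25 µM; 1 = signal of infected wells without compound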
PKD1 kinase inh – PKD1 (human) kinase inhibition; PKD1 kinase fluorescence polarization assay; inhibition, %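 (about 10 µM by stock and volumes)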; 0.056% of 200,000 active;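 active = inhibition of 50% or more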;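 note: controls were vehicle for no effect and a reference inhibitor for full effect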
GALR2 agonist – agonists of human galanin receptor 2 (GALR2); GALR2-expressing cells, agonist activation read-out; activation, %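 (tested at 5 µM)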; 0.48% of 140,000 active; AID 803;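 active = above mean plus 3 SD of all compounds, about 5% in these data, not always enough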;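 note: 0% = vehicle buffer wells and 100% = reference agonist at full effect; tested in CHO reporter cells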
Target sequence (O43603 whole entry, looked up): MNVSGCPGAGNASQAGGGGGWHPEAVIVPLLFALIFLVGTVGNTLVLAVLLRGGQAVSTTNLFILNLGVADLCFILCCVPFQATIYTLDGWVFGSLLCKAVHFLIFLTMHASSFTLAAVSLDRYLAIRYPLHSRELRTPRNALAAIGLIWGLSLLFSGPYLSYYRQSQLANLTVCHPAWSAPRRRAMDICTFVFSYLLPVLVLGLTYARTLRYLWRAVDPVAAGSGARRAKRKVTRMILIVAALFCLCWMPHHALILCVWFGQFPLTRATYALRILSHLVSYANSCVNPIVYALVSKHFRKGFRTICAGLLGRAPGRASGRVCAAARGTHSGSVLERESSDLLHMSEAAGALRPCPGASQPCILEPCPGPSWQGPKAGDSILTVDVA
INS promoter inh cell count – further read-out of INS promoter inh, marked with its call; normalized cell count, %; measured here: cell count, toxicity; reference of the scale not given here;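 cells exposed to compound for 48 h; stained nuclei by imaging scaled within each plate; lower means fewer cells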
HSV augment primary fold – further read-out of HSV augment, marked with its call; fold increase; compound at 10 µM; measured here: primary screen fold increase 10 uM; tested in PC3 cells;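 GFP signal in the first replicate; 1 = infected wells without compound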
The depositor's hits bear a star; i = inactive; . = not tested or not shown.

Screens in order: RGS16-Gao | INS promoter inh | INS promoter inh cell count | HSV augment | HSV augment primary fold | PKD1 kinase inh | GALR2 agonist
CCOC(=O)c1csc(NC(=O)Nc2cccc(Cl)c2)n1
 : 98 | 41 | 147 | i | 0.72 | -6 | 3.5
CC(CN1CCCCC1)C(=O)NN (stereo unspecified)
 : 100 | 7 | 122 | i | 1 | 0 | .
COc1ccc(N2CCN(C(c3ccc4ncccc4c3)c3nnnn3C(C)(C)C)CC2)cc1 (stereo unspecified)
 : 123 | 28 | 68 | i | 0.94 | -2 | .
CCOC(=O)C1=C2SCCN2C(=O)C(C#N)C1(C)C (stereo unspecified)
 : 97 | . | . | i | 1 | 2 | -0.1
O=C(CSc1c2c(nc3ccc(Cl)cc13)CCCC2)NCCCN1CCOCC1
 : 102 | -33 | 70 | i | 0.82 | -7 | .
Cc1ccc(-c2nc(CS(=O)CC(=O)NC3CCCC3)c(C)o2)cc1 (stereo unspecified)
 : 106 | . | . | i | 0.87 | 9 | -2.6
Cn1cccc1C(=O)OCc1csc(-c2ccccc2)n1
 : 111 | . | . | i | 0.85 | 13 | -2.1
C(=N\Nc1nc(N2CCCC2)nc(N2CCCC2)n1)/c1ccccc1OCc1ccccc1
 : 109 | 22 | 107 | i | 0.84 | 3 | .
CCc1c(C)nc2ccc(Br)cc2c1Cl
 : 100 | 7 | 121 | i | 0.86 | 4 | -1.9
CSc1nc(N)c(C(=O)Nc2ccc([N+](=O)[O-])cc2)s1
 : 86 | . | . | i | 1.1 | . | .
O=C(COC(=O)/C=C/c1ccc(S(=O)(=O)N2CCOCC2)cc1)NCc1ccc(F)cc1
 : 94 | . | . | i | 0.93 | -4 | .
CC(NC(=O)C12CC3CC(CC(C3)C1)C2)C(=O)NCCN(C)C (stereo unspecified)
 : 95 | . | . | i | 0.81 | -16 | -1.3
CCCCOc1ccc(C(C)NC(=O)C2CCCN(S(=O)(=O)CC)C2)cc1 (stereo unspecified)
 : 170 | -85 | 74 | i | 1 | 2 | -1.6
COC(=O)c1ccc2nccnc2c1
 : 96 | . | . | i | 1 | . | .
CCC(=O)N1CCc2cc(S(=O)(=O)CCC(=O)NCCC3=CCCCC3)ccc21
 : 93 | -67 | 110 | . | . | 0 | -0.8
O=C(O)c1ccc(CNCc2ccc(Cl)cc2)cc1
 : 95 | . | . | i | 1.1 | 6 | -1.3
COC(=O)c1ccccc1OC(=O)c1cccnc1
 : 89 | -22 | 106 | i | 0.96 | 1 | -1.1
Nc1nc(NS(=O)(=O)c2ccc(Cl)cc2)nn1-c1ccccc1
 : 94 | . | . | i | 1.1 | . | .
CC(=O)NS(=O)(=O)c1ccc(NC(=S)NC(=O)CC(C)C)cc1
 : 99 | 0 | 114 | i | 1.1 | -4 | .
O=C(NCc1cccnc1)C1CC(=O)N(c2ccc(F)cc2)C1 (stereo unspecified)
 : 95 | 25 | 109 | i | 0.98 | -7 | -1.1
COc1cc(C(=S)N2CCCC2)cc(Cl)c1OCC(=O)Nc1ccc(C)cc1C
 : 150 | 31 | 88 | i | 0.95 | 5 | -1.8
COCCCn1c(=NC(=O)c2ccccc2)c(C#N)cc2c(=O)n3cccc(C)c3nc21
 : 94 | . | . | i | 0.99 | . | .
CC1CCCN(CCOCCOc2ccc(Cl)cc2Br)C1 (stereo unspecified)
 : 107 | 11 | 67 | i | 1.1 | -5 | -0.1
Cc1cc(C)n2c(SC/C(O)=C(\C#N)c3nc4ccccc4[nH]3)nnc2n1
 : 90 | . | . | i | 1.1 | -4 | -2.1
O=C(NCc1ccccn1)c1cc2n(n1)C(C(F)(F)F)CC(c1ccco1)N2 (stereo unspecified)
 : 87 | 53 | 113 | i | 1.1 | -15 | -3.3
Cc1nc(NC2=NCN(CC3CCCO3)CN2)nc2ccccc12 (stereo unspecified)
 : . | 17 | 100 | . | . | 0 | -1.7
CCn1c(=O)cc(OCC(=O)NCCC(C)C)c2ccccc21
 : 118 | . | . | i | 1.2 | -11 | -2.9
Cc1cccc(NC(=O)/C(=C\c2ccco2)NC(=O)c2cccs2)c1
 : 103 | -25 | 116 | i | 0.96 | -1 | -1.7
CC(O)CNCCOc1cccc(Oc2ccccc2)c1 (stereo unspecified)
 : 105 | . | . | i | 0.93 | -6 | .
Cc1cc(C)nc(N(C#N)CC(=O)N(c2ccccc2)C(C)C)n1
 : 102 | -36 | 187 | i | 0.97 | -5 | -0.1
CCN(CC)CCCNC(=S)N(Cc1cccnc1)Cc1cc2cc(C)ccc2[nH]c1=O
 : 104 | . | . | i | 0.94 | . | .
Cc1ccccc1NC(=O)N1CCCC(c2nc(-c3ccc(C(C)C)cc3)no2)C1 (stereo unspecified)
 : 101 | . | . | i | 0.64 | -10 | -2.4
CCOC(=O)C1(Cc2ccc(Cl)cc2)CCN(C(=O)c2cc(C)nc(C)n2)CC1
 : 102 | . | . | i | 1.1 | -9 | .
CN1CCN(c2ccc([N+](=O)[O-])cc2S(=O)(=O)N2CCOCC2)CC1
 : 122 | -40 | 54 | i | 0.95 | -1 | -0.4
COc1ccc(CCNC(=O)c2cc(-c3cc(C)cc(C)c3O)n[nH]2)cc1OC
 : 89 | . | . | i | 0.85 | . | .
N#Cc1c(N)sc(=S)c2c1CCCC2
 : 103 | -19 | 133 | i | 1.1 | 12 | -0.9
CC(C)(C)OC(=O)NCCc1nnc(SCC(=O)c2ccc(Cl)cc2)o1
 : 101 | -32 | 132 | i | 0.84 | 2 | -1.4
C/C(=N\NC(=O)c1ccc([N+](=O)[O-])cc1Cl)c1ccccc1
 : 101 | . | . | i | 0.95 | 1 | .
CCOC(=O)N1CCC(NC(=O)C2CCN(S(=O)(=O)c3cnc[nH]3)CC2)CC1
 : 97 | . | . | i | 0.78 | -11 | -1.3
C[N+]1(CC(O)COc2ccccc2)CCN(C(=O)c2ccc([N+](=O)[O-])cc2)CC1 (stereo unspecified)
 : 105 | -34 | 152 | i | 0.92 | -16 | 0.8
O=C(Nc1ccc(OCC(=O)N2CCOCC2)cc1)Nc1cccc2ccccc12
 : 115 | 53 | 113 | i | 0.83 | -7 | .
Cc1ccc(C(=O)Nc2cc3ccccc3oc2=O)cc1
 : 108 | . | . | i | 0.82 | 2 | .
COc1ccc(C(=O)NCc2cccnc2)cc1OC
 : 86 | 45 | 131 | i | 1.1 | 3 | -0.1
Cc1cc(SCC(=O)c2ccccc2)n2nc(C)nc2n1
 : 101 | . | . | i | 1.5 | -1 | -1.0
COc1cc(/C=C2\SC(=S)N(NS(=O)(=O)c3ccc(C)cc3)C2=O)cc(OC)c1OC
 : 96 | . | . | i | 1 | . | .
Cc1cccc(-c2noc(Cc3ccccc3)n2)c1
 : 101 | . | . | i | 0.83 | -4 | -0.5
COc1cc(C(=O)NCC(=O)N/N=C(/C)c2cccs2)cc(OC)c1OC
 : 50 | 38 | 41 | i | 0.99 | -10 | -1.3
Cc1ccc(Nc2c(-c3ccccn3)nc3cccc(C)n23)cc1
 : 102 | -53 | 115 | i | 0.61 | -4 | .
COc1ccccc1-n1cnnc1SCC(=O)Nc1cccc(S(=O)(=O)N2CCCCC2)c1
 : 98 | -33 | 137 | i | 0.97 | -4 | -1.2
O=C(CSc1ccc2nnc(-c3ccccn3)n2n1)Nc1ccc2c(c1)OCO2
 : 90 | . | . | i | 0.97 | -17 | -2.9

Remaining list, next part
Screens in order: RGS16-Gao | INS promoter inh | INS promoter inh cell count | HSV augment | HSV augment primary fold | PKD1 kinase inh | GALR2 agonist
O=C(Nc1cccc(Cl)c1)Nc1nnc(CC2=CCCCC2)s1
 : 93 | 30 | 78 | i | 0.73 | 4 | -1.0
CCNC(=O)CP(=O)(c1ccccc1)c1ccccc1
 : 96 | -11 | 63 | i | 0.88 | -3 | 0.1
CCc1ccc(C2C(C#N)=C(N)N(N(C)C)C3=C2C(=O)CCC3)s1 (stereo unspecified)
 : 107 | -100 | 102 | i | 0.96 | -11 | -1.4
CC(C)CCN1CCN(Cc2cccc3cccnc23)CC1CCO (stereo unspecified)
 : 100 | -6 | 167 | i | 0.93 | -5 | .
O=C(CSc1ccc(-c2ccc(F)cc2)nn1)NCC1CCCO1 (stereo unspecified)
 : 99 | . | . | i | 1.1 | -7 | .
CCc1ccccc1NC(=O)c1ccc([N+](=O)[O-])s1
 : 117 | -111 | 54 | i | 0.77 | 1 | .
NS(=O)(=O)c1cccc(NC(=O)COC(=O)/C=C/c2ccco2)c1
 : 104 | . | . | i | 0.98 | -3 | .
CC1CCCCN1CCn1cnc2c([nH]c3ccccc32)c1=O (stereo unspecified)
 : 103 | -60 | 80 | i | 0.94 | 0 | -1.4
Cc1c(C(=O)NCCC2=CCCCC2)oc2ccc(S(=O)(=O)N3CCC4(CC3)OCCO4)cc12
 : 108 | -42 | 32 | i | 0.9 | 1 | -2.0
O=C(OCc1cccc([N+](=O)[O-])c1)c1cc(=O)[nH]c2ccccc12
 : 110 | . | . | i | 0.93 | -9 | .
CCCCCn1c(C(C)NC(=O)CCC)nc2ccccc21 (stereo unspecified)
 : 110 | . | . | i | 0.9 | -2 | -2.8
CN1/C(=C/C(=S)NC(=O)C2CCC2)C(C)(C)c2ccccc21
 : 97 | -25 | 82 | i | 1.1 | 8 | .
COc1cc2nc(CN3C(=O)c4ccccc4C3=O)oc(=O)c2cc1OC
 : 108 | . | . | i | 0.92 | 1 | -2.0
COc1ccc(NS(=O)(=O)c2ccc(NC(C)=O)cc2)cc1OC
 : 99 | . | . | i | 0.95 | -16 | -1.8
O=C(Nc1ccccc1)c1nccn1Cc1ccc(F)cc1
 : 106 | . | . | i | 0.98 | -6 | .
Cc1ccccc1OCC(=O)OCC(=O)NCc1cccs1
 : 80 | 8 | 103 | i | 0.83 | 6 | -0.9
CNC(=O)c1nn(-c2ccc(C)cc2)ccc1=O
 : 102 | 40 | 131 | i | 0.84 | -4 | -0.6
S=C(NCc1ccc2c(c1)OCO2)Nc1ccc2nsnc2c1
 : 105 | 27 | 158 | i | 0.76 | -4 | .
CCOC(=O)C1=C(C)NC(=O)NC1c1ccc(OCC(=O)OC)c(OC)c1 (stereo unspecified)
 : 102 | 27 | 141 | i | 0.9 | -10 | -3.3
Cc1cc(C(=O)CNCc2ccco2)c(C)n1-c1ccc(F)cc1
 : 101 | -16 | 84 | i | 1.1 | 2 | -3.1
COCc1nc2ccccc2n1Cc1ccc(Br)cc1
 : 101 | 29 | 83 | i | 1.1 | -4 | -0.3
COc1ccc(S(=O)(=O)N(C)CC(=O)N2CCN(Cc3ccccc3)CC2)cc1C
 : 101 | 0 | 83 | i | 1 | -2 | -3.0
Cc1ccc(/C=N/Nc2nncc(-c3ccccc3)n2)o1
 : 98 | . | . | i | 0.96 | 2 | .
Cc1ccc(-c2cc3nc(C)cc(C)n3n2)cc1
 : 88 | . | . | i | 0.88 | -2 | .
CCCCCCC/C(C)=N/NC(=O)CC(=O)NCCc1ccccc1
 : 95 | -12 | 128 | i | 0.89 | -3 | -4.6
C/C(=N\NC(=O)NC1CCCCC1)C1CCCCC1
 : 112 | -94 | 36 | i | 0.89 | -9 | -2.2
CC(C)NC(=O)c1ccc(-c2ccccc2C(F)(F)F)o1
 : 103 | 22 | 118 | i | 1 | -4 | 0.6
OCCC1CN(Cc2cccc3c2OCO3)CCN1C1CCCCC1 (stereo unspecified)
 : 96 | . | . | i | 1.1 | -7 | .
CCS(=O)(=O)c1ccc(C(=O)Nc2ccccc2OC)c(Cl)c1Cl
 : 107 | 26 | 113 | i | 1 | 6 | .
CCN=C1S/C(=C\c2cn(C(C)=O)nc2-c2ccccc2)C(=O)N1CC
 : 109 | -29 | 212 | i | 0.87 | -1 | 0.6
COCCN1Cc2cccc(C(=O)Nc3cccc(OC)c3)c2C1=O
 : 95 | . | . | i | 0.95 | 1 | -1.8
